# Assay outcomes: PubChem, National Center for Advancing Translational Sciences (NCATS)
# HPGD block: inhibitors of human 15-hydroxyprostaglandin dehydrogenase (HPGD). P15428. purified HPGD, NADH fluorescence kinetic, PGE2 substrate. Potency, µM, without a hit: at the top dose activity change, negative = inhibition, most hits filed as inhibitors. 150,000 compounds, 4.3% hits. AID 894; active = well fitted inhibition curve with a large enough effect (not every such curve was filed as active); inconclusive = small, poorly fitted or top-dose-only effect, or another doubt; inactive = no such curve, though single readings can be large or run the other way;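 further: top concentration of the series not given in the record; plate controls included wells without enzyme; inactives centre near -10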
# Target sequence (P15428 whole entry, looked up): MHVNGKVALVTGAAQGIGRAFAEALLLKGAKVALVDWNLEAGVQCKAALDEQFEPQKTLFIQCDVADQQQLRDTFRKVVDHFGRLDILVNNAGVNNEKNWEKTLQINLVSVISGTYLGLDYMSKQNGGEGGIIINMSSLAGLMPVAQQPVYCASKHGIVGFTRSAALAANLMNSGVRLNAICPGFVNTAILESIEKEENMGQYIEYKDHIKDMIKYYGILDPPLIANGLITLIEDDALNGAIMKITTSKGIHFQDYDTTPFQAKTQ
#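 NADH formation kinetics: reaction with 30 uM PGE2 and 1 mM NAD+ (final), 20 nM enzyme, Tris-HCl pH 8 with Tween 20, after 15 min compound preincubation at room temperature. Fluorescence change, last versus first of five reads.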
# * hit, by the source's call; ? = inconclusive; & = joins results of further samples. On the % scale 0 is the no-effect control and ±100 the full control effect; potency means the concentration at half of the fitted maximal effect. Some of the compounds tested, so the mix of outcomes need not match the whole.
HPGD block	smiles
-11%	Nn1c(SCC(=O)Nc2ccc(Oc3ccccc3)cc2)nnc1C1CC1
-30%	NC(=O)c1cccc2c(=O)oc3ccccc3c12
-17%	Cc1ccc(-c2nnn(CCC(=O)NC(C)(C)C)n2)cc1
16µM*	CC(C)(C)C1CCc2c(sc(NC(=O)C3CC=CCC3C(=O)O)c2C#N)C1 (stereo unspecified)
-16%	CCOc1ncccc1C(=O)OCc1ccc(C(=O)OC)o1
-12%	CC1(C)CC(N2CCCC2)=CC(=[N+]2CCCC2)C1
-27%	CCOC(=O)/C(C#N)=C/c1c(OCC)n(CC)c2ccccc12
-4%	CSc1nc2ccccc2n1CC(=O)Nc1c(C)n(C)n(-c2ccccc2)c1=O
-18%	COc1ccc2nc(Nc3nc(CSc4nc5ccccc5[nH]4)cc(=O)[nH]3)nc(C)c2c1
-7%	CNC(=O)NC(=O)C(C)OC(=O)CCCSc1nc2ccccc2s1 (stereo unspecified)
?	COC(=O)C1(CC(C)C)C=C2C(=C(C(C)C)C(=O)C2C)CN1 (stereo unspecified)
-10%	Cc1onc(-c2ccccc2)c1C(=O)Nc1nc(-c2ccc(F)c(F)c2)cs1
-24%	COc1ccc(/C=N/NC(=O)c2ccn[nH]2)cc1COc1ccc(Cl)cc1
-6%	CCOc1ccc(Nc2nc(N)nc(CN(C)C3CCCCC3)n2)cc1
-8%	O=C(NCCCN1CCN(c2cccc(Cl)c2)CC1)C1CCC(=O)N1Cc1ccccc1Cl (stereo unspecified)
-6%	CCN1C(=O)N(c2cccc3ccccc23)C(C)=CC1(C)C
-10%	COc1ccccc1-n1c(SCC(=O)N2CCOCC2)nc(O)c(Cc2ccccc2)c1=O
-6%	COc1ccc(NC(=O)c2cc([N+](=O)[O-])nn2Cc2ccccc2)c(C)c1
-12%	CCOC(=O)/C=C1\SCC(=O)N1Cc1ccc(Br)cc1
-8%	CCCCn1nnnc1SCC(=O)Nc1ccc2c(c1)OCCO2
-6%&-11%	c1ccc(CNCCN2CCNCC2)nc1
-8%	Cc1c(Cl)cccc1NC(=O)CN1C(=O)CSc2ncccc21
-8%	C=CCN1C(=O)CS/C1=N\S(=O)(=O)c1ccc(Cl)cc1
-12%	COCCSc1ccccc1C(=O)N1CCCC1
-14%	CN(Cc1nc2ccccc2c(=O)[nH]1)Cc1cc(=O)oc2ccc3ccccc3c12
-5%	CC(C)(C)c1n[nH]c2c1CCCC2
?	CC1(C)CC(=O)C2=C(C1)Nc1cc3c(cc1C2c1ccc(F)cc1)OCO3 (stereo unspecified)
-6%	CCN(C(=O)c1ccccc1Cl)c1ccccc1
0%	COc1ccc(C[C@H](O)CN2CCOCC2)cc1
-3%	O=C(NC1CCN(C(=S)NCc2ccco2)CC1)C1CCCCC1

# By substructure: the compounds so far containing an aryl thioether with sulfur outside any ring.
HPGD block	smiles
-11%	Nn1c(SCC(=O)Nc2ccc(Oc3ccccc3)cc2)nnc1C1CC1
-4%	CSc1nc2ccccc2n1CC(=O)Nc1c(C)n(C)n(-c2ccccc2)c1=O
-18%	COc1ccc2nc(Nc3nc(CSc4nc5ccccc5[nH]4)cc(=O)[nH]3)nc(C)c2c1
-7%	CNC(=O)NC(=O)C(C)OC(=O)CCCSc1nc2ccccc2s1 (stereo unspecified)
-10%	COc1ccccc1-n1c(SCC(=O)N2CCOCC2)nc(O)c(Cc2ccccc2)c1=O
-8%	CCCCn1nnnc1SCC(=O)Nc1ccc2c(c1)OCCO2
-12%	COCCSc1ccccc1C(=O)N1CCCC1

# Next structures.
HPGD block	smiles
-21%	O=C(NC1=NCCS1)c1cc(-c2ccccc2)nn1-c1ccccc1
-22%	Cc1ccc(CN2C(=O)CCC2C(=O)NC2CC2)cc1 (stereo unspecified)
?	O=C(NCN1CCN(c2ccccc2F)CC1)c1cccnc1
-6%	O=C(Nc1ccccc1O)c1cc(S(=O)(=O)N2CCOCC2)ccc1Cl
-3%	Cc1ccc(S(=O)(=O)NC(=O)NCc2ccccc2)cc1
-23%	COc1ccc(-n2c(O)c(/C=N/n3cnnc3)c3ccccc3c2=O)cc1
-7%	COc1ccccc1-c1nnc(SCc2nc3ccccc3s2)n1C
3%	C[C@@]12CCC3c4ccc(O)cc4CCC3C1CCC2O (stereo partly specified)
-4%	O=C1Nc2ccccc2C1=Nc1ccc(S(=O)(=O)Nc2nccs2)cc1
-8%	Cc1ccc(C(=O)OCc2cc3ccccc3[nH]c2=O)cc1
-8%	CCOC(=O)c1c(C)[nH]c(C(=O)COC(=O)C2CC(=O)N(Cc3ccccc3)C2)c1C (stereo unspecified)
-8%	FC(F)(F)c1ccc(CN2CCCCCC2)cc1
-15%	CCOC(=O)Cc1csc(NC(=O)COc2ccc(N(C)S(=O)(=O)c3ccc(C)cc3)cc2)n1
-14%	Cc1cccc(C(=O)N/N=C/c2ccncc2)c1
0%	COC(=O)c1cc(S(=O)(=O)NC2CCN(Cc3ccccc3)CC2)cn1C
?	CCN(Cc1ccccc1)C(=O)c1ccc(CNS(=O)(=O)c2ccc(C)cc2)cc1
?	Cc1ccc(-c2cn3cccnc3n2)cc1NC(=O)c1cccs1
-6%&4%	FC(F)(F)c1cc(CO[C@H]2CCCN[C@H]2c2ccccc2)cc(C(F)(F)F)c1
-20%	CC1CCN(c2nc3nonc3nc2N2CCC(C)CC2)CC1
32µM*	C=CCNC(=O)CNS(=O)(=O)c1ccc(F)cc1
-8%&-7%	O=C(O)CSc1ccccc1C(=O)O
0%	CCc1cc2ccc(C)cc2nc1SCC(=O)Nc1cc(OC)c(OC)cc1C(=O)O
-9%	COc1cc(CCC(=O)Oc2ccc(C(C)=O)cc2)cc(OC)c1OC
-13%	Clc1ccc2c(c1)c1ccccc1n2CN1CCOCC1
-15%	CC(C)c1ccc(C2=C(O)c3ccccc3C(=O)C2=O)cc1
-8%	COc1cc(NC(=O)CN2C(=O)C(c3ccccc3)=NC23CCCCCC3)cc(OC)c1
-7%	COc1ccccc1N1CC(C(=O)Nc2ccc(S(=O)(=O)N3CCOCC3)cc2)CC1=O (stereo unspecified)
?	CN(C)C=NC(=O)c1ccc(N2CCN(c3ncc(C(F)(F)F)cc3Cl)CC2)cc1
-21%	Cc1ccc(NC(=O)c2nn(C34CC5CC(CC(C5)C3)C4)cc2[N+](=O)[O-])cc1
?	O=S(=O)(c1ccc(Cl)cc1)N1CCN(c2nc(-c3cccs3)nc3ccccc23)CC1
-6%	COc1ccc(N(C(=O)Cn2nnc3ccccc32)C(C(=O)NCc2ccco2)c2ccc(C)o2)cc1 (stereo unspecified)
?	Cn1c(C(=O)NCc2cccs2)cc2c(=O)n(C)c3ccccc3c21
-8%	CCCS(=O)(=O)N1CCC(C(=O)NCCCN(CC)c2cccc(C)c2)CC1
-10%	COc1ccc(-n2cnnc2SCc2ncc(-c3ccccc3)o2)cc1
-5%	CCOc1ccc(Cc2nnc(N)s2)cc1OCC
-25%	COc1ccccc1NC(=O)N1CCC(c2nnc(SCC(N)=O)n2C)CC1
-14%	COc1ncc2nc(C)c(=O)n(Cc3cccs3)c2n1
-1%	Cc1cccc(Br)c1
-6%	Cc1ccc(NC(=O)CSc2n[nH]c(=O)n2C2CC2)cc1S(=O)(=O)N1CCOCC1
14µM*	Cc1[nH]n(-c2ccc(Br)cc2)c(=O)c1C=Nc1ccc(S(=O)(=O)Nc2nccs2)cc1
-17%	CCOC(=O)c1ccc(N=c2sc(C(=O)OC)cc(=O)n2Cc2ccco2)cc1
?	Cc1cc(C)n(CC(O)Cn2c3ccccc3c3ccccc32)n1 (stereo unspecified)
-9%	CSc1nc(-c2ccccc2)[nH]c(=S)c1C(C)=O
-18%	COc1ccc(CN(C#N)c2nc(SC)nc(N(C)C)n2)cc1
?	Cc1cc(NC(=O)c2cc(S(=O)(=O)N3CCCCC3)ccc2C)n(-c2ccccn2)n1
-4%	CCOC(=O)N1CCC(N2Cc3cccc(C(=O)N4CCN(C5CCCCC5)CC4)c3C2=O)CC1
-14%	Cc1ccccc1OCC(=O)NCCC1=CCCCC1
-13%	CC(Oc1ccc(-c2ccccc2)c(F)c1)c1ccn(S(=O)(=O)c2ccc(F)cc2)n1 (stereo unspecified)
-19%	CC(=O)Nc1cc(C(=O)N2CCc3ccccc3C2)ccc1Sc1ccc(Cl)cc1
?	CCOC(=O)c1ccc(Nc2nc(=O)c3cccnc3s2)cc1
-4%	COc1ccc(CC(CC(=O)O)C(=O)Nc2ccccc2)cc1 (stereo unspecified)
-3%	O=S(=O)(c1ccc2oc3ccccc3c2c1)N1CCCC1
-4%	CCNc1nc(NC(C)(C)C)nc(N(C#N)CC)n1
?	COc1ccc(-c2cc(C(=O)N/N=C/c3sccc3C)c3ccccc3n2)c(OC)c1
-5%	Cc1ccccc1NC(=S)N(Cc1cccnc1)Cc1ccco1
-6%	O=C(NCC(c1ccco1)N1CCCC1)c1ccccc1F (stereo unspecified)
3.5µM*	O=[N+]([O-])c1ccc(Cl)c(CNc2ncnc3c2ncn3[C@@H]2CCCCO2)c1
-13%	COc1ccc(/C=N/n2cnnc2)cc1COc1ccccn1
7.1µM*	O=C(OCc1nnc(-c2ccccc2)o1)c1ccc2c(c1)OCO2
-4%	CCCCSc1nnc(-c2cc(Br)ccc2N)c(=O)[nH]1

# Reprinted at random: five entries already listed.
HPGD block	smiles
-4%	CCCCSc1nnc(-c2cc(Br)ccc2N)c(=O)[nH]1
-18%	COc1ccc(CN(C#N)c2nc(SC)nc(N(C)C)n2)cc1
?	Cn1c(C(=O)NCc2cccs2)cc2c(=O)n(C)c3ccccc3c21
-1%	Cc1cccc(Br)c1
-4%	COc1ccc(CC(CC(=O)O)C(=O)Nc2ccccc2)cc1 (stereo unspecified)

# Additional entries.
HPGD block	smiles
-23%	CCOc1cc(/C=N/NC(=O)CN2CCCCC2)ccc1OCc1ccccc1
-19%	Cc1cc(C)n2[nH]c(=O)c(N=Nc3cccc(Cl)c3)c2n1
-16%	CC1CC(C)CN(S(=O)(=O)c2cccc(C(=O)N3C(=O)c4cccc(N)c4C3=O)c2)C1 (stereo unspecified)
-3%	CCOC(=O)/C=C/C(=O)Nc1ccccc1C(=O)NC1CCCCC1
-9%	OC(CN1CCN(c2ccccc2)CC1)c1c[nH]c2ccccc12 (stereo unspecified)
-1%	O=C(c1c(O)c2ccc(Cl)cc2[nH]c1=O)C1CC1
-18%	Cc1ccc(C)c(Cn2c(CN(C)Cc3ccccc3)nc3c2c(=O)n(C)c(=O)n3C)c1
-7%	Cc1ccc(SCCNC(=S)Nc2ccc(C)cc2C)cc1
-9%	Cc1ccc(S(=O)(=O)N2CCN(C(=O)CSc3nnc(-c4ccco4)o3)CC2)cc1
-15%	CC(NC(=O)c1csc2ccccc12)C1CCCO1 (stereo unspecified)
?	Cc1c(N)cccc1-c1nc2ccccc2[nH]1
?	O=C(Cc1cccs1)NCCSc1c(-c2ccc(Cl)cc2)[nH]c2ccccc12
-6%&-24%	CCC/C=C(\CCC)C(NC(=O)Cc1ccccc1)c1ccc(C(=O)OC)cc1 (stereo unspecified)
-19%	O=C(c1nnc(Cc2ccc(Cl)cc2)o1)N1CCc2ccccc2C1
-17%	COc1ccc(-c2nc3ccc([N+](=O)[O-])cc3[nH]2)cc1
-13%	Cc1ccc(S(=O)(=O)c2c(COC(=O)c3ccccc3Cl)c(-c3ccccc3)nn2C)cc1
-9%	Cc1onc(-c2c(Cl)cccc2Cl)c1C(=O)c1c[nH]c(C(=O)NCCCN2CCOCC2)c1
?	COc1ccc(O)c(-c2c(-c3ccc(Cl)cc3)n[nH]c2C)c1
?	CC(C)(C)C(=O)Oc1ccc2cc(-c3ccc4ccccc4n3)c(=O)oc2c1
-1%	CN1CCc2c(n(CC(O)CN3C(=O)c4ccccc4S3(=O)=O)c3ccccc23)C1=O (stereo unspecified)
-22%	COc1ccc(Cl)cc1NC(=O)c1cnc2n(c1=O)CCS2
?	COC(CNC(=O)c1ccc2nc(-c3cccs3)c(-c3cccs3)nc2c1)OC
-16%	Cc1ccccc1NS(=O)(=O)c1ccc2[nH]cc(C(=O)NCCCN3CCOCC3)c(=O)c2c1
-9%	O=C(NCc1ccncc1)Nc1ccc(F)cc1
-28%	CN(CC(=O)Nc1sccc1C#N)C1CCCCC1
-13%	N#C/C(=C(/O)COC(=O)c1ccc(C#N)cc1)c1nc2ccccc2s1
-7%	Cc1noc(C)c1COC(=O)c1cccc(S(=O)(=O)N2c3ccccc3CC2C)c1 (stereo unspecified)
?	COCCNC(=O)c1c(N)n(/N=C/c2cccs2)c2nc3ccccc3nc12
-8%	COc1ccc(NC(=O)c2ccc(-n3cccn3)nc2)cc1
-11%	COc1cccc(S(=O)(=O)NCc2ccc(C(=O)NCc3ccco3)cc2)c1
-11%	O=C(NCCCO)c1nc2ccccc2s1
-1%	Cc1ccnc2nc(C(=O)OCC(=O)NCCc3ccc(Cl)cc3)nn12
-7%	c1ccc(-c2noc(CN3CCN(c4ccccc4)CC3)n2)cc1
-1%	Cc1ccc(-c2nc(CS(=O)CC(=O)NCCN3CCOCC3)c(C)o2)cc1 (stereo unspecified)
-7%	C#CC(C)OC(=O)C(C)NC(=O)c1ccccc1 (stereo unspecified)
-15%	O=C(Nc1cccnc1)c1ccccc1Oc1ccccc1
-5%	CC(C)CCNC(=O)C1CCN(c2nc3ccccc3o2)CC1
-2%	COc1cc(NS(=O)(=O)c2ccc(C)cc2C)cc(OC)c1OC

# Nothing new here: entries from further up.
HPGD block	smiles
-11%	O=C(NCCCO)c1nc2ccccc2s1
-1%	Cc1ccnc2nc(C(=O)OCC(=O)NCCc3ccc(Cl)cc3)nn12
-7%	c1ccc(-c2noc(CN3CCN(c4ccccc4)CC3)n2)cc1
-1%	Cc1ccc(-c2nc(CS(=O)CC(=O)NCCN3CCOCC3)c(C)o2)cc1 (stereo unspecified)
